# Vaccinia inh: blocks a specific stage of Vaccinia orthopoxvirus infection | Vaccinia-infected cells, mCherry/Venus stage reporter fluorescence; active compounds read low; some inactives read as strong as hits | activity change (mCherry), % (concentration not given with the values) | hit rate 0.01% among 89,000;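 active means mCherry past -33% and 40 or more points under the early reporter, replicates agreeing; inconclusive means past -33% without that gap or agreement; tested in A549 cells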;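 further: scaled between vehicle wells and reference inhibitor wells; 23 nL library stock went into each well; one replicate is shown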
# Vaccinia inh Venus: second read-out of Vaccinia inh, no call of its own (marks repeat the call); activity change (Venus), %; measured here: Venus reporter, other viral stage;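 negative = less Venus signal; first of two replicates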
# Active calls of the source: *; ? = inconclusive; · = no result given. Some of the compounds tested (hit frequency here may not be typical).
SMILES,Vaccinia inh,Vaccinia inh Venus
CN1CCN(C(=O)C[C@H]2C[C@H]3c4cc(NC(=O)Nc5ccc(F)cc5)ccc4O[C@H]3[C@H](CO)O2)CC1,6,16
COc1ccccc1CN1[C@H](CO)[C@H]2c3ccccc3N(C(=O)C3CCCCC3)C[C@H]21,-29,-18
CC(=O)N[C@@H]1CC[C@@H](CCNC(=O)C2CCC2)O[C@H]1CO,5,7
COCC(=O)N1CCC2(CC1)CN(S(C)(=O)=O)[C@H](CO)c1[nH]c3cc(OC)ccc3c12,7,-1
CS(=O)(=O)N1C[C@H](O)COC[C@@H]2O[C@@H](CC(=O)NCc3ccc(-c4ccccc4)cc3)CC[C@H]21,11,10
COCC(=O)Nc1ccc2c(c1)OC[C@@H](C)N(C(=O)COC)C[C@H](C)[C@@H](OC)CN(C)C2=O,21,17
O=C(NC[C@@H]1CC[C@H]2[C@H](CN2Cc2cccc(Cl)c2)O1)C1CCC1,16,13
Cc1noc(C)c1NC(=O)Nc1cccc2c1O[C@H](CN(C)C)[C@@H](C)CN([C@H](C)CO)C2=O,18,3
C[C@@H]1CN([C@@H](C)CO)C(=O)c2cc(C#C[C@@H](C)O)cnc2O[C@@H]1CN(C)CC1CCOCC1,2,1
C[C@H]1CN([C@@H](C)CO)C(=O)c2cc(C#Cc3ccccc3)cnc2O[C@@H]1CN(C)Cc1ccccn1,-19,-11
C[C@@H]1CN([C@H](C)CO)C(=O)c2cc(NC(=O)c3ccncc3)ccc2O[C@@H](C)CCCCO[C@@H]1CN(C)Cc1ccncc1,32,6
Cc1noc(C)c1NC(=O)Nc1ccc2c(c1)C(=O)N([C@H](C)CO)C[C@@H](C)[C@@H](CN(C)S(=O)(=O)c1cn(C)cn1)O2,2,6
O=C(C[C@H]1CC[C@H]2[C@@H](COC[C@H](O)CN2Cc2cccc(Cl)c2)O1)N1CCOCC1,1,2
Cc1ccc(-c2cnc3c(c2)C(=O)N([C@@H](C)CO)C[C@H](C)[C@@H](CN(C)C(=O)c2ccc(F)cc2)O3)cc1,-1,-1
Cc1ccc(S(=O)(=O)Nc2ccc3c(c2)C(=O)N([C@H](C)CO)C[C@H](C)[C@H](CN(C)Cc2ccncc2)OCCCC[C@H](C)O3)cc1,?,·
C[C@@H]1CCCCO[C@H](CN(C)Cc2ccncc2)[C@@H](C)CN([C@@H](C)CO)C(=O)c2cc(NS(C)(=O)=O)ccc2O1,0,-2
CO[C@H]1CN(C)C(=O)c2cc(NC(=O)C3CC3)ccc2OC[C@H](C)N(Cc2ccc(F)cc2)C[C@H]1C,-21,-7
CS(=O)(=O)Nc1ccc2c(c1)[C@H]1C[C@@H](CC(=O)NCc3ccccn3)O[C@@H](CO)[C@H]1O2,17,16
CN1c2ccc(-c3cccc(F)c3)cc2[C@H]2[C@H](CCN2C(=O)C2CC2)[C@H]1CO,-7,-13
C[C@H]1CCCCO[C@H](CN(C)C(=O)c2ccncc2)[C@@H](C)CN([C@@H](C)CO)C(=O)c2cc(NC(=O)c3ccncc3)ccc2O1,24,1
COc1ccc2c3c([nH]c2c1)[C@@H](CO)N(Cc1ccccc1)CC31CCN(C(=O)Nc2cccc(F)c2)CC1,10,6
C[C@@H]1CN([C@H](C)CO)C(=O)c2cc(Br)cnc2O[C@@H]1CN(C)Cc1ccc(-c2ccccc2)cc1,-8,0
C[C@H](CO)N1C[C@H](C)[C@H](CN(C)S(=O)(=O)c2ccc(F)cc2)OCCCC[C@H](C)Oc2ccc(NC(=O)Nc3ccc4c(c3)OCO4)cc2C1=O,-17,0
COc1ccc2c3c(n(C)c2c1)[C@@H](CO)N(C(=O)Nc1ccc(F)cc1)CC31CCN(S(=O)(=O)c2cccs2)CC1,5,-6
C[C@H](CO)N1C[C@H](C)[C@H](CN(C)C(=O)Nc2ccccc2)OCc2ccccc2-c2ccccc2C1=O,25,23

# Arranged by SMILES length (rising): some entries from above
SMILES,Vaccinia inh,Vaccinia inh Venus
O=C(NC[C@@H]1CC[C@H]2[C@H](CN2Cc2cccc(Cl)c2)O1)C1CCC1,16,13
COCC(=O)Nc1ccc2c(c1)OC[C@@H](C)N(C(=O)COC)C[C@H](C)[C@@H](OC)CN(C)C2=O,21,17
CS(=O)(=O)N1C[C@H](O)COC[C@@H]2O[C@@H](CC(=O)NCc3ccc(-c4ccccc4)cc3)CC[C@H]21,11,10

# Going on with the list:
SMILES,Vaccinia inh,Vaccinia inh Venus
C=CCN1Cc2ccccc2[C@H]2OC(c3ccc(OCCCO)cc3)=N[C@@]2(CC=C)C1=O,?,·
Cc1noc(C)c1NC(=O)Nc1ccc2c(c1)C(=O)N([C@H](C)CO)C[C@H](C)[C@H](CN(C)C(=O)Nc1ccccc1)OCCCC[C@H](C)O2,22,9
CCC(=O)Nc1ccc2c(c1)OC[C@H](C)N(C(=O)C1CCC1)C[C@@H](C)[C@H](OC)CN(C)C2=O,9,7
CO[C@@H]1CN(C)C(=O)c2cc(NS(=O)(=O)c3cccc(C)c3)ccc2OC[C@@H](C)NC[C@@H]1C,11,10
CN1[C@H](C(=O)NCc2ccccn2)[C@@H](CO)[C@@H]2Cn3c(ccc(-c4cccc(F)c4)c3=O)[C@@H]21,-4,12
CC(C)(O)C#Cc1ccc([C@H]2[C@@H](CO)N3CCCCN(C(=O)c4cccc(F)c4)C[C@@H]23)cc1,21,4
CCC(=O)N(C)C[C@@H]1Oc2ncc(-c3ccccc3OC)cc2C(=O)N([C@@H](C)CO)C[C@@H]1C,22,7
C[C@H]1CN([C@@H](C)CO)C(=O)c2cc(C3=CCCCC3)cnc2O[C@H]1CN(C)C(=O)c1ccc2c(c1)OCO2,2,-10
C[C@H](CO)N1C[C@H](C)[C@@H](CN(C)C(=O)c2cnccn2)Oc2cc(C#CC3CC3)ccc2S1(=O)=O,22,8
C[C@H]1CN([C@@H](C)CO)C(=O)Cc2cc(NC(=O)NC3CCCCC3)ccc2O[C@@H]1CN(C)S(=O)(=O)c1ccc(F)cc1,5,9
C[C@@H]1CN([C@@H](C)CO)C(=O)c2cc(NC(=O)Cc3cn(C)c4ccccc34)ccc2O[C@H]1CN(C)Cc1ccc(Oc2ccccc2)cc1,?,·
CC(C)NC(=O)N(C)C[C@H]1OCCCC[C@H](C)Oc2ccc(NC(=O)CCC(F)(F)F)cc2C(=O)N([C@@H](C)CO)C[C@@H]1C,5,-8
C[C@H]1CN([C@@H](C)CO)S(=O)(=O)c2ccc(C#CC3(O)CCCC3)cc2O[C@H]1CN(C)C(=O)Nc1ccccc1,-29,-13
COc1cc(CN2CC3(CCN(C(C)=O)CC3)c3c([nH]c4cc(OC)ccc34)[C@H]2CO)cc(OC)c1,25,19
Cc1noc(C)c1S(=O)(=O)Nc1ccc2c(c1)CC(=O)N([C@@H](C)CO)C[C@H](C)[C@H](CN(C)C(=O)Nc1ccc(C(F)(F)F)cc1)O2,16,21
COc1ccc(S(=O)(=O)Nc2ccc3c(c2)C(=O)N([C@@H](C)CO)C[C@@H](C)[C@H](CN(C)Cc2ccc(C(=O)Nc4ccccc4N)cc2)OCCCC[C@@H](C)O3)cc1,11,5
CC(=O)Nc1ccc2c(c1)C(=O)N(C)[C@H]1CC[C@H](CC(=O)NCc3ccccc3Cl)O[C@@H]1CO2,2,6
C[C@@H]1CN([C@H](C)CO)C(=O)Cc2cc(NC(=O)Nc3ccc4c(c3)OCO4)ccc2O[C@@H]1CN(C)Cc1ccc(Cl)c(Cl)c1,?,·
CC(C)NC(=O)N(C)C[C@H]1Oc2c(NS(=O)(=O)c3ccc(F)cc3)cccc2C(=O)N([C@@H](C)CO)C[C@H]1C,11,9
COc1ccccc1-c1cn(CC[C@H]2CC[C@@H](NC(=O)c3ccccc3F)[C@H](CO)O2)nn1,-11,-5
O=C(c1ccccc1)N1C[C@@H]2[C@H](c3ccccc31)[C@H](CO)N2Cc1ccccc1F,-10,1
CCCNC(=O)N1C[C@@H]2[C@H](c3ccccc31)[C@@H](CO)N2CC1CCCC1,1,-1
COc1ccc(COCC23N=C4SCc5ccccc5C(=O)N4[C@H](c4ccccc4O2)[C@H]3COC(=O)c2ccccc2)cc1,-1,-5
COc1ccc(CN(C)C[C@@H]2Oc3c(NS(=O)(=O)c4ccc(Cl)cc4)cccc3C(=O)N([C@@H](C)CO)C[C@H]2C)cc1,-17,-11
CCCC#Cc1cnc2c(c1)C(=O)N([C@@H](C)CO)C[C@@H](C)[C@@H](CN(C)S(=O)(=O)c1cn(C)cn1)O2,-6,-1

# One compound at a time, as listed above. Order of screens: Vaccinia inh | Vaccinia inh Venus
# COc1cc(CN2CC3(CCN(C(C)=O)CC3)c3c([nH]c4cc(OC)ccc34)[C@H]2CO)cc(OC)c1 is listed as 25 | 19
# C[C@H]1CN([C@@H](C)CO)S(=O)(=O)c2ccc(C#CC3(O)CCCC3)cc2O[C@H]1CN(C)C(=O)Nc1ccccc1 is listed as -29 | -13
# Cc1noc(C)c1NC(=O)Nc1ccc2c(c1)C(=O)N([C@H](C)CO)C[C@H](C)[C@H](CN(C)C(=O)Nc1ccccc1)OCCCC[C@H](C)O2 is listed as 22 | 9
# CC(=O)Nc1ccc2c(c1)C(=O)N(C)[C@H]1CC[C@H](CC(=O)NCc3ccccc3Cl)O[C@@H]1CO2 is listed as 2 | 6

# Carrying on:
SMILES,Vaccinia inh,Vaccinia inh Venus
CNC[C@@H]1OCCCC[C@H](C)Oc2ccc(NC(=O)c3ccccc3)cc2C(=O)N([C@@H](C)CO)C[C@@H]1C,-4,4
CCC(=O)Nc1ccc2c(c1)OC[C@H](C)N(C(=O)NC(C)C)C[C@H](C)[C@H](OC)CN(C)C2=O,15,21
C[C@@H]1CCCCO[C@@H](CN(C)C(=O)Cc2ccccc2)[C@H](C)CN([C@H](C)CO)C(=O)c2cc(NS(=O)(=O)c3ccc(Cl)cc3)ccc2O1,?,·
C[C@H](CO)N1C[C@H](C)[C@@H](CN(C)S(=O)(=O)c2ccc(Cl)cc2)Oc2ccc(NC(=O)CCN3CCOCC3)cc2CC1=O,-1,-8
COc1cccc(-c2ccc([C@H]3[C@H](CO)N4CCCCN(C(=O)NC(C)C)C[C@@H]34)cc2)c1,-8,-6
COc1ccc(NC(=O)Nc2ccc3c(c2)C(=O)N([C@H](C)CO)C[C@H](C)[C@@H](CN(C)C(=O)Nc2ccccc2)OCCCC[C@@H](C)O3)cc1,6,8
N#Cc1cccc(-c2ccc(C3[C@H]4CNC[C@@H]3N4C(=O)Nc3cccc(F)c3)cc2)c1 (stereo partly drawn),2,0
C[C@@H]1CCCCO[C@H](CN(C)C(=O)Nc2cccc3ccccc23)[C@H](C)CN([C@H](C)CO)C(=O)c2cc(NS(=O)(=O)c3ccccc3)ccc2O1,4,4
C[C@H](CO)N1C[C@H](C)[C@@H](CN(C)Cc2ccc(-c3ccccc3)cc2)Oc2ccc(NC(=O)Nc3ccc(C(F)(F)F)cc3)cc2C1=O,-25,-15
CC(=O)N1[C@@H]2c3cccc(=O)n3C[C@@H]2[C@@H](CO)[C@@H]1C(=O)NCc1ccccc1F,17,7
C[C@H](CO)N1C[C@H](C)[C@@H](CN(C)Cc2cccc(C(=O)O)c2)Oc2ncc(-c3ccccc3F)cc2C1=O,7,7
CNC(=O)C[C@H]1CC[C@H]2[C@H](COc3ccc(NC(=O)Nc4ccccc4F)cc3C(=O)N2C)O1,6,11
COc1ccc(COCC23N=C4SCc5ccccc5C(=O)N4[C@H](c4ccccc4O2)[C@H]3CO[Si](C)(C)C(C)(C)C)cc1,9,4
O=C(NC[C@@H]1[C@H](c2ccccc2)[C@@H](CO)N1C(=O)Cc1cccnc1)C1CC1,10,6
O=C(N[C@@H]1CC[C@H](CCNS(=O)(=O)c2ccccc2Cl)O[C@H]1CO)c1ccccc1,10,-2
O=C(C[C@@H]1CC[C@H]2[C@@H](COC[C@H](O)CN2C(=O)Nc2ccc(C(F)(F)F)cc2)O1)NC1Cc2ccccc2C1,-5,0
COc1ccc2c3c([nH]c2c1)[C@@H](CO)N(Cc1ccncc1)CC31CCN(C(=O)Cc2ccncc2)CC1,13,9
O=C(C[C@H]1C=C[C@H](NC(=O)Nc2ccccc2F)[C@H](CO)O1)NCc1ccc(Cl)cc1,16,13
CCCN1[C@@H]2c3ccc(-c4ccccc4)c(=O)n3C[C@H]1[C@H](CO)[C@H]2C(=O)NCCc1cn(C)cn1,8,3
CCCC(O)C#Cc1cnc2c(c1)C(=O)N([C@H](C)CO)C[C@H](C)[C@H](CN(C)C(=O)Nc1ccc(F)cc1)O2 (stereo partly drawn),13,11
CCCNC(=O)N1[C@H](CO)[C@H](c2ccccc2)[C@@H]1CNC(=O)c1ccccc1,17,1
N#Cc1ccc(-c2ccc3c(c2)[C@H]2[C@H](CCN2Cc2ccc4c(c2)OCO4)[C@@H](CO)N3)cc1,-24,8
CO[C@@H]1CC[C@@H]2CCN(C)C(=O)CC3(CCCCC3)CN(C)C(=O)c3cc(C#N)ccc3OC[C@H]1O2,1,-4
CN(C)CC(=O)N[C@H]1CC[C@@H](CCNC(=O)C2CC2)O[C@@H]1CO,8,1
CO[C@@H]1CN(C)C(=O)c2cc(NC(C)=O)ccc2OC[C@H](C)N(Cc2cc(F)ccc2F)C[C@H]1C,1,-6
COCC#Cc1ccc([C@H]2[C@H](CO)N3C(=O)CN(C(=O)c4cccnc4)C[C@@H]23)cc1,30,13
C[C@H]1CN([C@@H](C)CO)C(=O)Cc2cc(NC(=O)CCN3CCOCC3)ccc2O[C@@H]1CN(C)S(=O)(=O)c1ccc(Cl)cc1,1,-1
CC(=O)N(C)C[C@H]1Oc2ncc(-c3cccc(F)c3)cc2C(=O)N([C@@H](C)CO)C[C@H]1C,2,-7
CC(C)NC(=O)N1C[C@H]2[C@@H](c3ccccc31)[C@@H](CO)N2C(=O)c1ccccn1,7,7
O=C(Cc1cccnc1)N[C@H]1CC[C@H](CCn2cc(Cc3ccccc3)nn2)O[C@H]1CO,19,19

# High-throughput results deposited in PubChem BioAssay by Broad Institute.
